NPYLR7 ag = activates Aedes aegypti NPYLR7 receptor; HEK293T NPYLR7/Galpha15, GCaMP6s calcium fluorescence; activation, % at 10 µM; 270,000 tested, 0.15% active; AID 1259423; in the data active = activation above about 40%;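 note: 0% = vehicle and 100% = reference agonist at the receptor; some compounds past the cut are filed as inactive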
NPYLR7 ag max-min = also measured in NPYLR7 ag; calls as there; activation, %; measured here: Max-Min RFU normalised activation; some inactives read as strong as hits;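 span of the calcium signal over five minutes; 0% = vehicle and 100% = native peptide agonist; compound fluorescence can raise it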
* = called active by the depositor; & = joins results of further samples. This is a subset. The share of hits here may be higher or lower than overall.

SMILES	NPYLR7 ag	NPYLR7 ag max-min
CCCc1ccc(C(O)c2ncc(-c3ccccc3F)[nH]2)cc1 (stereo unspecified)	-1.5	0.1
CC1(C(=O)NCC2CCCCC2)CCN1C(=O)CCc1ccc(Cl)cc1Cl (stereo unspecified)	-7.1	-2.3
Cc1ccc(C(C)N(C)C(=O)Nc2ccc(-c3nnc4n3CCCC4)cc2)s1 (stereo unspecified)	25.4	21.5
S=c1[nH]nc(NC2CCCC2)s1	-3.5	-3.2
CSc1nc(N)c(C#N)cc1C#N	3.9	1.9
CCCCN(C)C(=O)Cn1cc(-c2nc(-c3ccc(OC)cc3)no2)ccc1=O	-5.1	-5.3
O=C(c1ccc2ncsc2c1)N1CCOC2(CNCCOC2)C1 (stereo unspecified)	0.7	-3.3
CCCCn1c(=O)[nH]c(=O)c2c1nc(COC(=O)CCC)n2CC	1.6	0.4
COc1ccc(CC(=O)N2CCOC(COc3ccc(Cl)c(C)c3)C2)c(OC)c1OC (stereo unspecified)	20.6	23.1
C=CCN(C(=O)C1CC(=O)N(C2CCCC2)C1)c1nc2c(s1)CCCC2 (stereo unspecified)	2.0	6.3
COc1ccccc1-c1cccc(-c2cccc(NC(=O)c3ccc(Cl)cc3)c2)n1	-0.7	3.2
Cc1cccc(OCc2ccc(-c3nc(C#N)c(NCCN4CCOCC4)o3)o2)c1	-3.0	11.0
O=C(O)C1(Cc2ccc(Cl)cc2)CCN(c2ncnc3[nH]ccc23)CC1	-0.7	-7.6
CC(C)C(O)(C(=O)NN(C(=O)COc1ccccc1)c1ccccc1)C(C)C	-4.7	-10.9
OCc1ccc(-c2ccccc2F)o1	1.7	3.0
COc1ccc(-c2cnn(C(C)(C)C(=O)Nc3cnc4ccccc4c3)c2)cc1OC	-3.3	-2.9
Cc1ccnc(NC(=O)CC2CSc3nccc(=O)n32)c1 (stereo unspecified)	-1.3	0.3
CN(C)/C=C/C=C/C(=O)C1=C(O)/C(=C/C=C/N(C)C)CCC1	1.7	-3.6
O=C(c1ccco1)N1CCN(C2=NN=C(c3cccs3)CS2)CC1	2.1	-2.2
Cc1cccnc1C(NC(=O)C1CCN(CCOc2ccccc2)CC1)c1ccc(F)cc1 (stereo unspecified)	6.8	11.2
CCc1ccc(S(=O)(=O)N2CCc3cc(S(=O)(=O)N4CCCC4)ccc32)cc1	7.4	3.1
CCN(Cc1ccc(C(=O)Nc2ccccc2C)cc1)Cc1noc(C)n1	18.6	8.5
CC(=O)N(Cc1ccc(OS(=O)(=O)C(C)C)cc1)C1CC1	-5.0	-0.2
CC(NC(=O)c1ccccc1NS(=O)(=O)c1ccccc1Br)c1ccccc1 (stereo unspecified)	-0.8	-3.1
CC(C)(C)N1COc2ccc3c4c(oc3c2C1)C(=O)c1ccccc1C4=O	2.5	0.7
(list continues)
SMILES	NPYLR7 ag	NPYLR7 ag max-min
Cn1c(SCC(=O)c2sc3ccccc3c2O)nnc1-c1ccc(N)cc1	-8.5	-16.3
Cc1ccsc1C=CC1=CC(=C(C#N)C#N)CC(C)(C)C1	3.9	1.0
Cc1ccc(C)c(CN(CCc2c[nH]c3ccccc23)Cc2nc(C(=O)NCc3ccc4c(c3)OCO4)co2)c1	18.7	16.7
C=CCn1c(SCC(=O)NC(C)c2ccco2)nc2ccsc2c1=O (stereo unspecified)	-13.0	-4.1
CCOC(=O)C1C(=O)C=C(c2ccc(OC)c(OC)c2)CC1c1ccco1 (stereo unspecified)	14.9	20.7
CCOC(=O)c1[nH]c(C)c(C(=O)CN(CC)C(=O)c2ccc(Br)cc2)c1C	-9.9	1.6
Cc1cnn(C(=O)c2cccn2C)c1N	-5.2	372.4
N#Cc1ccc(C(=O)N2CCC(n3cnc4ccc(F)cc43)CC2)cc1	3.5	1.6
COc1ccc(CN(Cc2nc(C(=O)NCC(C)C)co2)C(C)C(C)C)cc1 (stereo unspecified)	5.3	6.3
CCn1nc(C)c(C(C)NC(=O)c2cc(C)oc2C)c1C (stereo unspecified)	16.9	9.5
C=CCOc1ccc(-n2ccnc2)cc1CO	-0.1	2.2
CCc1nn2c(nnc3c(=O)n(-c4ccc5c(c4)OCCO5)ccc32)c1-c1ccccc1	6.5	3.2
Nc1nonc1-c1noc(C2CC2c2ccccc2)n1 (stereo unspecified)	10.3	10.1
COc1cc(-c2c(NC(=O)C(C)C)n(C)c3ccccc3c2=O)cc(OC)c1OC	6.6	3.1
FC(F)(F)c1cc(-c2ccco2)nc2c1cnn2Cc1ccncc1	-2.5	5.8
CC(Oc1ccc(I)cc1)C(=O)Nc1ccc(S(N)(=O)=O)cc1 (stereo unspecified)	2.6	0.4
Cc1cc(C(=O)/C(C#N)=C\c2cc(C)n(C3CC3)c2C)c(C)n1-c1ccccc1F	-0.4	-2.6
Nc1nc(-c2cc(Cl)cc(Cl)c2OC(F)F)cs1	13.9	9.8
CCOC(=O)c1nn(Cc2cccc(OC)c2)c2c1CN(C(=O)c1csc(C(C)C)n1)CC2	12.0	2.0
CC(C)N1CCC(C)(C(=O)Nc2ccc(OC(F)F)cc2)C1 (stereo unspecified)	-3.1	-5.6
COc1ncnc2sc3c(c12)CCCC3	1.3	-1.0
O=C(N=c1sccn1Cc1ccccc1Cl)c1ccc[nH]c1=O	-21.9	-23.6
CC1CN(C(=O)Nc2c[nH]c3ccccc23)CC(C)O1 (stereo unspecified)	2.7	-3.9
COCCN(CC(=O)N1CCc2sccc2C1c1ccccc1C)C(=O)c1cccc(C(F)(F)F)c1 (stereo unspecified)	-4.0	4.2
CCc1nnc(NC(=O)C2CC(c3ccccc3)=NO2)s1 (stereo unspecified)	-3.0	-3.8
(next part)
SMILES	NPYLR7 ag	NPYLR7 ag max-min
O=C1NCC2CN(C(=O)Nc3cccc4ccccc34)CCN2C1=O (stereo unspecified)	2.5	-0.7
Cc1ccc(NC(=O)c2cccnc2Nc2cccc(C(F)(F)F)c2)cc1	-1.4	-6.8
CCN(Cc1nccn1Cc1ccc(F)c(F)c1)S(=O)(=O)c1ccc(C)cc1	11.1	13.6
CCCNC(=O)Cn1nc2c(c1NC(=O)COc1ccccc1F)CSC2	-10.4	-16.4
C=CCNC(=O)C(NC(=O)c1cccs1)C1CCN(C(=O)c2cccc(Br)c2)CC1 (stereo unspecified)	8.3	11.6
O=S(=O)(NCCOc1ccc(-c2ccccc2)nn1)c1ccccc1	-10.4	-17.3
CC(c1ccc(-n2cncn2)cc1)N(C)C(=O)C12CC3CC(CC(Cl)(C3)C1)C2 (stereo unspecified)	-4.4	-5.7
O=C(Nc1ccc(S(=O)(=O)C2CCCC2)cc1)c1cccc(F)c1	5.6	2.5
C=CCn1c(SCC(=O)NC23CC4CC(CC(C4)C2)C3)nc2sc3c(c2c1=O)CCC3	0.3	-0.4
Cn1c(CN2CCN(CC(=O)Nc3cccc(Cl)c3)CC2)nc2ccccc21	-0.9	-3.4
CCCc1ccccc1N1C(=O)CSC1c1cccc(NC(=O)C(Cl)c2ccccc2)c1 (stereo unspecified)	6.6	9.6
COc1ccc(C(=O)N(C)Cc2nc3ccccc3o2)c(C)c1	1.0	0.3
COc1ccc2c(c1)CCc1c(-c3ccc(C(=O)N4CCN(CCC#N)CC4)cc3)n[nH]c1-2	28.8	18.4
CN(Cc1cc(Cl)cn1C)C(=O)c1cnn(C)c1	0.1	-2.8
O=c1cc2nc(-c3ccco3)cc(C(F)(F)F)n2[nH]1	-0.1	-0.3
O=C1CCCN1c1ccc(CNS(=O)(=O)c2ccc3c(c2)CCCC3)cc1	4.0	4.4
Clc1ccc(-c2nc(NC3CC3)c3ccccc3n2)cc1	-1.0	10.0
COc1ccccc1-c1cccc(C(=O)NCCN2CCOC2=O)c1	3.2	-0.6
CC(CC1CCCC1)C(=O)N1CCC(c2nc(C3CC3)n[nH]2)CC1 (stereo unspecified)	2.9	-0.6
CC(C)CC(=O)Nc1ccnn1C1CCN(c2cc(N(C)C)ncn2)CC1	6.9	-2.2
CCN(CC)S(=O)(=O)c1cc(NC(=O)CCn2nc(C)cc2C)ccc1C	7.4	5.4
CCCc1ncc(C(=O)Nc2ccccc2-c2ncc(C)[nH]2)s1	2.0	-1.0
CC(N)=C(C#N)C(=O)CSc1nnc(-c2ccco2)o1	-7.3	-14.5
COc1cccc(CNC2CCc3c(c(C(=O)N4CCCCCC4)nn3C)C2)c1 (stereo unspecified)	10.3	0.5
O=C(CSc1ncccc1C(=O)OCC(=O)C1CCCCC1)Nc1ccc2c(c1)OCO2	0.4	-1.2
The list continues.
SMILES	NPYLR7 ag	NPYLR7 ag max-min
CN(CC(=O)Nc1ccc(F)cc1)C(=O)c1nn(-c2ccccc2)c2c1CCC2	0.5	-1.0
COc1cc(C=C2C(=O)N(C)C(=O)N(C)C2=O)cc(OC)c1OC(C)=O	11.0	9.3
COc1ccccc1N1C(=O)CC(SC(N)=N/N=C(C)\C=C\c2ccc(N(C)C)cc2)C1=O (stereo unspecified)	-10.4	-14.8
CCC(CC)NC(=O)Cn1cnc2scc(-c3ccc(C)cc3)c2c1=O	0.9	-2.3
COc1ccc(-c2csc3c(=O)n(Cc4ccc(C)cc4C)cnc23)cc1	1.5	-2.4
CC(c1ccccc1)N1CC(C(=O)NCC(=O)Nc2cc(Cl)ccc2Cl)CC1=O (stereo unspecified)	11.6	12.1
CC(C)CC(NC(=O)CN(C)C)c1nnc2n1CCN(C(=O)/C=C/c1ccc(F)cc1)CC2 (stereo unspecified)	16.6	0.0
CC(=O)c1cc(C(=O)NCc2cccnc2Oc2ccccc2F)[nH]n1	-0.8	27.8
Cc1ccc(CNc2nc(CN3CCSCC3)nc3ccccc23)cc1	19.5	10.0
CCCS(=O)(=O)N1CCc2ccc(NC(=O)C3(c4ccccc4)CC3)cc2C1	-0.3&9.7	-3.4&10.6
Cc1cc(C)cc(NC(=O)CCn2c(=O)oc3cc(S(=O)(=O)N4CCCC4)ccc32)c1	-4.3	-3.9
CC1(C)O[C@@H]2C[C@@](OCc3cccc(F)c3)(C(=O)NC3CC3)CC(OCc3cccc(Cl)c3)[C@@H]2O1 (stereo partly specified)	8.8	-1.8
CC1CC(OC(=O)C(O)c2ccccc2)CC(C)(C)C1 (stereo unspecified)	-6.2	-12.1
COc1cccc(Cn2c(=O)c(C(=O)N3CCCC3)nn(-c3ccc(OC)c(OC)c3)c2=O)c1	-3.5	3.9
CC(=O)N1CCN=C1SCc1cc(C)ccc1C	4.6	-0.8
CCc1sc(-c2nnc(CSc3ncnc4sccc34)o2)cc1C	0.0	17.3
Cc1ccc(CN2CCCC(CNC(=O)c3ccc4c(c3)OCO4)C2)o1 (stereo unspecified)	13.6	5.2
COc1ccc(C2=NN(C(=O)CN3CCN(C(C)=O)CC3)C(c3ccc(F)cc3)C2)c(OC)c1 (stereo unspecified)	0.9	6.2
Cc1ccc(N2CCCn3c2nc2c3c(=O)n(CC(=O)OCc3ccccc3)c(=O)n2C)c(C)c1	0.3	4.8
CCC1=NN2C(=N)/C(=C\c3ccc(OC)c(OC)c3OC)C(=O)N=C2S1	-1.8	-0.9
CN(Cc1cnc(C2CCCCC2)nc1)Cc1ncc[nH]1	7.5	5.5
Cc1ccc(SCCNC(=O)CSc2n[nH]c(=O)n2C2CC2)cc1	1.3	-4.9
Clc1ccc(-c2ncc(CN3CCCC(N4CCOCC4)C3)cn2)cc1 (stereo unspecified)	12.5	8.4
Cc1cc(C(F)(F)F)nc(CCNC2CCC3(CCNCC3)CC2)n1	0.6	-1.5
O=C(Nc1nc(-c2c[nH]c3ccccc23)cs1)c1ccc(F)cc1Cl	14.4	13.5

As a short view, part of the list above.
SMILES	NPYLR7 ag	NPYLR7 ag max-min
CN(CC(=O)Nc1ccc(F)cc1)C(=O)c1nn(-c2ccccc2)c2c1CCC2	0.5	-1.0
COc1cc(C=C2C(=O)N(C)C(=O)N(C)C2=O)cc(OC)c1OC(C)=O	11.0	9.3
COc1ccccc1N1C(=O)CC(SC(N)=N/N=C(C)\C=C\c2ccc(N(C)C)cc2)C1=O (stereo unspecified)	-10.4	-14.8

Gathered by group, those above containing two or more sulfur atoms.
SMILES	NPYLR7 ag	NPYLR7 ag max-min
S=c1[nH]nc(NC2CCCC2)s1	-3.5	-3.2
O=C(c1ccco1)N1CCN(C2=NN=C(c3cccs3)CS2)CC1	2.1	-2.2
CCc1ccc(S(=O)(=O)N2CCc3cc(S(=O)(=O)N4CCCC4)ccc32)cc1	7.4	3.1
Cn1c(SCC(=O)c2sc3ccccc3c2O)nnc1-c1ccc(N)cc1	-8.5	-16.3
C=CCn1c(SCC(=O)NC(C)c2ccco2)nc2ccsc2c1=O (stereo unspecified)	-13.0	-4.1
C=CCn1c(SCC(=O)NC23CC4CC(CC(C4)C2)C3)nc2sc3c(c2c1=O)CCC3	0.3	-0.4
CCc1sc(-c2nnc(CSc3ncnc4sccc34)o2)cc1C	0.0	17.3
Cc1ccc(SCCNC(=O)CSc2n[nH]c(=O)n2C2CC2)cc1	1.3	-4.9

(list continues)
SMILES	NPYLR7 ag	NPYLR7 ag max-min
Cc1ccc(C)c(C(C)NC(=O)Cn2ccccc2=O)c1 (stereo unspecified)	10.3	3.1
O=C1CC2(CCCC2)C(=O)N1CN1CCN(c2ccc(F)cc2)CC1	27.1	20.7
Cc1cc(Nc2ccc3c(n2)C(=O)N(CC(=O)Nc2ccccc2)C3)n(C)n1	-14.5	-14.8
CCc1cccc2c(C(CC(=O)NCCc3ccccn3)c3cccc(OC)c3OC)c[nH]c12 (stereo unspecified)	16.6	15.8
COc1ccc(NC(=O)CCN(CCc2ccccc2)c2nc(C3CC3)nc3cc(Cl)ccc23)cc1	25.7	28.6
CCc1cc(Oc2ccc(Cl)c(C)c2)nc(SCc2ccc(C(F)(F)F)cc2)n1	26.3	23.3
C/C(=C\c1ccco1)CN(Cc1nccn1C)C1CC1	2.2	1.7
C[C@H]1C(=O)N(C)CCN1C(=O)c1ccccc1OC1CCN(C(=O)c2cccnc2)CC1	-0.1	-5.1
Cc1ncc(CN(C)C(=O)NC2CCCCCCC2)s1	4.4	0.5
CSc1cccc(NC(=O)N2CCN(c3cc(-n4ccnc4)ncn3)CC2)c1	-8.8	-14.8

High-throughput results: PubChem BioAssay, Fisher Drug Discovery Resource Center
